Assay outcomes deposited in PubChem by several laboratories.
E coli growth: inhibitors of Escherichia coli growth. AID 1053175. 330,000 compounds, 0.21% hits. OD600, 23 h; active compounds read low. OD600 absorbance (concentration not given with the values);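 active = OD600 absorbance below the run mean of sample wells minus 3.6 SD, in any replicate, cut at about 0.56 in these data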;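 note: stock transfer was 300 nL into about 60 µL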
Vif A3G: HIV-1 Vif–A3G interaction blockers – biochemical, TR-FRET, GST-Vif 1-94, biotin-A3G peptide, dose response retest, primary screen (AID 1117319); TR-FRET GST-Vif / biotin-A3G peptide binding; higher % means a stronger effect; test concentration not given here; strong numbers were not always called active; inhibition, %, or IC50 in µM where a hit was titrated; 260,000 compounds, 0.57% hits;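 active = above the screen mean plus three standard deviations and confirmed in dose response; inconclusive = results disagree or hit not tested in dose response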;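 note: Vif residues 1-94 fused to GST binding biotinylated APOBEC3G peptide 110-148; 0% = full assay without inhibitor and 100% = GST in place of GST-Vif; retest series ran down from 100 µM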
FGF22 binding: binders of recombinant human FGF22 by thermal shift; SYPRO orange fluorescence; percent of sucrose octasulfate shift, DMSO zero; 340,000 compounds, 1.5% hits; Q9HCT0; calls only at 9.99 µM;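 active = melting point raised past a set limit in the mean and every replicate; inconclusive = no clear call; three in four hits are not shown here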
HNF4A DNA FP: change in binding of human HNF4 alpha to DNA; P41235; HNF4a-FITC DNA binding, fluorescence polarization, 1 h; activity change, % at 10 µM; 360,000 compounds, 0.3% hits; in the data active = activity change above about 30%, passing the limit was not always enough;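 note: controls were the assay level and a saturating level of protein; the project sought stronger binding though the title names inhibitors; some compounds called inactive have numbers as strong as hits; positive values seem to mean higher polarization but the record does not say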
Target sequence (P41235 whole entry, looked up): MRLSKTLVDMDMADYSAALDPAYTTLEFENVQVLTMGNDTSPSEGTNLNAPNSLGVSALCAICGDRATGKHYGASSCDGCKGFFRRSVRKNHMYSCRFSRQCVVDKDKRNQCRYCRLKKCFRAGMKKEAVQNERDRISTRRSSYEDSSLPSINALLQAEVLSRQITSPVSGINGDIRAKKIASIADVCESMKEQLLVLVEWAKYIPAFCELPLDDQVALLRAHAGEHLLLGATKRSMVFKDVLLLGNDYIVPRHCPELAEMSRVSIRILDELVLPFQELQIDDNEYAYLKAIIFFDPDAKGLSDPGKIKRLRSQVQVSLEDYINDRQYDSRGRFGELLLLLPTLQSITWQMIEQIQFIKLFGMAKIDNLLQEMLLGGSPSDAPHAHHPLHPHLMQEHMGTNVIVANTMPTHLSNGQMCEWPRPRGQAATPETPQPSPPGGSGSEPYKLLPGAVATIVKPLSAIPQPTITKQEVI
RanGTP-Impb inh: disruptors of Ran-importin-beta complex formation – biochemical, FRET, CFP-Ran, YFP-importin-beta, homogeneous, primary screen; cell-free CFP-Ran/YFP-importin-beta FRET ratio; AID 2216; 300,000 compounds, 1.1% hits; inhibition, % (test concentration not listed);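 active = most replicates above 15%; inconclusive = exactly half above 15%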;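 note: 0% = DMSO wells and 100% = Ran loaded with GDP instead of GTP; wells of about 40 µL received 100 nL stock; the first replicate is given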
UCH37 inh: blocks the human deubiquitinase UCH37; Q9Y5K5; purified proteasome/UCH37, Ub-AMC cleavage fluorescence; inhibition, % (no concentration beside the values); 330,000 compounds, 0.33% hits;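 active = mean of two replicates above 20%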;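 note: 0% = compound-free wells with enzyme and 100% = wells lacking proteasome; stock transfer was 100 nL into about 20 µL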
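Schedule: 30 min plus 25 min, room temperature / Material: human UCH37 within purified proteasomes / Technique: AMC fluorescence intensity at 355/460 nm / Buffer or medium: pH 7.4 Tris-HCl (50 mM) with ovalbumin, ATP-MgCl2, DTT / Controls: wells without proteasome as full block, compound-free enzyme plus substrate as uninhibited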
AF4-AF9 inh: blocks AF4 peptide binding to human AF9; 350,000 compounds, 0.47% hits; inhibition, % at 10 µM; P42568; AlphaScreen, biotin-AF4 peptide binding to FLAG-AF9;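 active = every replicate reaching a set inhibition limit, whatever the replicate mean, cut at about 25% in these data; inconclusive = mean inhibition reaches that limit but some replicates miss it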;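 note: 0% = plate neutral control median and 100% = total signal loss; the record names both 10 and 1 µM as test concentration; the first replicate is given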
Target sequence (P42568 whole entry, looked up): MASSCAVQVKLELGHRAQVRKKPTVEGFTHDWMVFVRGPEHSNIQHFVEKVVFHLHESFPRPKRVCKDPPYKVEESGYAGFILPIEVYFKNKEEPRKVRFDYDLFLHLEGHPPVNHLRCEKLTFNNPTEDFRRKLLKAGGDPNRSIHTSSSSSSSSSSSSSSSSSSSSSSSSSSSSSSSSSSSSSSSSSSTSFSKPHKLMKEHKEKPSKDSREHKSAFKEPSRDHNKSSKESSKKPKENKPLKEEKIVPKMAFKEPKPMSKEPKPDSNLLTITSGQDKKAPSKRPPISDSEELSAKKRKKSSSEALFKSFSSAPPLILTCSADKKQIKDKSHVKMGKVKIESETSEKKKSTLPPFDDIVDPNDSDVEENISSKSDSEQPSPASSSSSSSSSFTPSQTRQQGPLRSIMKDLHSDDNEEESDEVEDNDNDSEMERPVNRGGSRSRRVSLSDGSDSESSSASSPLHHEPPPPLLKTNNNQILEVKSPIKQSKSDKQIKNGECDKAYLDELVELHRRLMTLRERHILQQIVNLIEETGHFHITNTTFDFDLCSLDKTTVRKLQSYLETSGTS
The depositor's hits bear a star; i = inactive; u = inconclusive; x = no result given; & = joins results of further samples.

AF4-AF9 inh,UCH37 inh,HNF4A DNA FP,Vif A3G,RanGTP-Impb inh,E coli growth,FGF22 binding,structure
12,5.2,0.8,15%,x,0.69,i,O=C1C(O)=CC(=C(c2ccccc2)c2ccccc2)c2ccccc21
1.7,40*,1.7,x,-2.8,0.69,i,COc1ccc(S(=O)(=O)/N=C2\C=C(NS(=O)(=O)c3ccccc3)C(=O)c3ccccc32)cc1
-1.5,5.0,3.6,-9%,5.4,0.74,i,CC(=O)NC(=S)Nc1ccc(S(=O)(=O)Nc2ncccn2)cc1
x,-25,-7.4,24%,x,0.76,x,COc1ccc(NC(=O)c2cc(-c3ccc(C)o3)nc3ccccc23)cc1OC
x,4.4,-2.0,0%,2.7,0.7,x,COc1ccccc1N(CC(=O)NCc1ccccc1)S(C)(=O)=O
-2.0,-0.1,0.5,x,-0.2,0.66,i,O=C(c1ccc(F)cc1F)N1CCN(c2ccccn2)CC1
x,-235,-0.2,x,1.5,0.63,x,Cc1cc(OCC(=O)N2CCC(O)CC2)c2c(C)cc(=O)oc2c1
x,3.0,0.0,8%,5.1,0.74,x,COc1ccccc1OC(=O)c1ccc(S(=O)(=O)N(C)C)cc1
-1.3,0.5,0.4,x,6.0,0.61,i,COc1ccccc1NS(=O)(=O)c1ccc2oc(SC)nc2c1
5.4,4.3,-2.4,2%,-0.9,0.64,i,Cc1c(Cl)cccc1N=c1c([N+](=O)[O-])nn(-c2ccccc2)n1O
x,2.2,0.0,16%,-2.4,0.66,x,CCc1ccc2[nH]c(=O)c(CN(CCN3CCCC3)C(=O)NC3CCCCC3)cc2c1
x,3.4,-2.2,9%,4.3,0.66,x,CCc1nc2ccccc2c(C(=O)OCC(=O)NCc2ccco2)c1C
-4.1,5.7,-3.0,2%,-1.5,0.64,i,CC(C)c1ccc(NC(=S)NNC(=O)c2cccnc2)cc1
-3.6,3.2,1.9,x,-0.6,0.66,i,O=C(CCc1nnc2n(Cc3ccccc3)c(=O)c3ccccc3n12)NCCCN1CCCCC1
4.2,-3.2,-2.9,2%,-2.8,0.7,i,O=C(COC(=O)Cn1cnc2ccccc2c1=O)NCC12CC3CC(CC(C3)C1)C2
15,3.8,-1.1,-3%,2.9,0.71,i,Cc1cccc(-n2cc(CN(C)Cc3nccn3C)c(-c3cccc(F)c3)n2)c1
-1.6,3.0,-0.1,5%,3.4,0.69,i,CSc1nnc(C)c(=O)n1COC(=O)/C=C/c1ccccc1
0.3,1.6,1.0,u,2.4,0.67,i,CCCC(=O)c1ccc(N2CCN(S(=O)(=O)c3ccc(C)cc3)CC2)c(F)c1
1.2,x,5.2,0%,x,x,i,Nc1ccc2c(c1)C1(CCC2)NC(=O)NC1=O (centres undefined)
x,1.1,-1.4,-1%,-2.2,0.67,x,Cc1ccc(C(=O)NCc2ccccn2)c(Cl)c1
0.7,1.5,-1.0,10%,-5.6,0.68,i,CC(=O)N1CCN(c2nnc(-c3ccccc3)c3ccccc23)CC1
1.2,x,-2.0,9%,1.2,x,x,CN(C)c1ccc(/C=N/NC(=O)c2ccccc2)cc1
-0.6,-4.0,2.8,-2%,u,0.69,i,Cc1nc(NC(=O)COC(=O)CCC(=O)c2cccs2)c(Cl)cc1Cl
-1.9,x,-3.4,7%,0.7,x,i,COC(=O)Cc1c(O)ccn(CCc2ccc(OC)c(OC)c2)c1=O
0.0,0.4,-1.1,5%,1.1,0.59,i,O=C(Nc1ccncc1)Nc1ccc(Cl)cc1Cl
-1.8,3.0,-3.8,x,x,0.71,i,CSc1ncccc1C(=O)OCC(=O)N1CCN(C(=O)c2ccco2)CC1
x,x,1.9,4%&0%,-1.2,x,x,Cc1occc1-c1nnc(SCC(=O)N2CCCc3ccccc32)n1Cc1ccco1
-0.5,1.9,-1.8,-5%,x,0.67,i,O=C(Nc1ccc2ccccc2c1[N+](=O)[O-])c1ccccc1
-1.4,1.4,1.6,-1%,1.7,0.74,i,Cc1ccc(NC(=O)C(CC(C)C)NC(N)=O)cc1 (centres undefined)
2.6,x,-3.3,x,x,x,i,O=C1N(Cc2ccccc2)c2ccc(Br)cc2[C@]12C[C@H](O)CO2
-1.0,4.5,-0.6,0%,2.0,0.69,i,O=C1C2C3C=CC(C2C(=O)N1c1nccs1)C1C(=O)N(c2nccs2)C(=O)C31 (centres undefined)
-15,1.7,4.5,x,-0.2,0.67,i,Cc1cc(OCc2cc(C(=O)N3CCN(C)C(=O)[C@@H]3C)no2)cc(C)c1Cl
5.2,1.9,-0.9,-2%,1.2,0.68,i,CC(OC(=O)COc1ccc(Nc2ccccc2)cc1)C(=O)N(C)c1ccccc1 (centres undefined)
x,-0.5,-1.0,5%,x,0.72,x,CCOC(=O)c1ccccc1NC(=O)c1cccs1
x,x,22,2%,-62,x,x,COc1ccc(N(CC(=O)N/N=C/c2ccc(-c3ccc([N+](=O)[O-])cc3)o2)S(=O)(=O)c2ccc(C)cc2)cc1Cl
-0.7,1.2,2.8,x,-2.7,0.71,i,CCOc1ccc(CCNS(=O)(=O)c2ccc3c(c2)N(C(C)=O)CCO3)cc1OCC
-2.3,2.9,-0.9,-11%,x,0.68,i,CCOC(=O)C(C(=O)Cc1ccccc1)c1ccccc1 (centres undefined)
-1.7,-0.1,-1.2,x,1.4,0.66,i,CCOc1ncccc1C(=O)OCc1c(F)cccc1Cl
-3.0,x,1.5,2%,x,x,i,O=C(Nc1ccc(NC(=O)c2ccccc2)c2ccccc12)c1ccccc1
-1.4,1.7,-0.2,0%,-2.7,0.62,i,Cc1ccc2sc(N3CCN(C(=O)C4=COCCO4)CC3)nc2c1C

Gathered by group, the compounds so far containing a thiophene ring, fused or not.
AF4-AF9 inh,UCH37 inh,HNF4A DNA FP,Vif A3G,RanGTP-Impb inh,E coli growth,FGF22 binding,structure
-0.6,-4.0,2.8,-2%,u,0.69,i,Cc1nc(NC(=O)COC(=O)CCC(=O)c2cccs2)c(Cl)cc1Cl
x,-0.5,-1.0,5%,x,0.72,x,CCOC(=O)c1ccccc1NC(=O)c1cccs1

Part of the list above in order of heavy-atom count, rising.
AF4-AF9 inh,UCH37 inh,HNF4A DNA FP,Vif A3G,RanGTP-Impb inh,E coli growth,FGF22 binding,structure
-1.4,1.4,1.6,-1%,1.7,0.74,i,Cc1ccc(NC(=O)C(CC(C)C)NC(N)=O)cc1 (centres undefined)
-1.4,1.7,-0.2,0%,-2.7,0.62,i,Cc1ccc2sc(N3CCN(C(=O)C4=COCCO4)CC3)nc2c1C
-1.8,3.0,-3.8,x,x,0.71,i,CSc1ncccc1C(=O)OCC(=O)N1CCN(C(=O)c2ccco2)CC1

(more compounds)
AF4-AF9 inh,UCH37 inh,HNF4A DNA FP,Vif A3G,RanGTP-Impb inh,E coli growth,FGF22 binding,structure
x,0.2,-5.7,0%,0.4,0.71,x,O=C(CSc1nnc(CNC(=O)c2cccs2)o1)NCc1ccc(F)cc1
-4.6,8.0,1.5,58%,-0.2,0.66,i,COc1ccc(C(=O)O)cc1S(=O)(=O)N1CCCc2ccccc21
-1.5,3.8,-3.5,x,1.7,0.69,i,COc1ccc(/C(N)=N/OC(=O)C2CCCCC2)cc1
-5.6,-2.0,-1.5,33%,8.4,0.73,i,O=C(CC(c1ccccc1)c1cc(Br)ccc1O)N1CCCCC1 (centres undefined)
x,2.8,-0.8,-1%,-0.8,0.67,x,CCOC(=O)C1=C(C)C(c2ccccc2OC)NC(=S)N1 (centres undefined)
3.4,5.1,-12,5%,-4.6,0.65,i,COc1ccc(-c2c(=O)n(OC)c3ccccc3[n+]2[O-])cc1OC
0.3,5.7,-2.2,-7%,-1.7,0.64,i,Cc1ccc(S(=O)(=O)N2CCN(C(=O)Cc3sc(C)nc3-c3ccc(F)cc3)CC2)c(C)c1
-0.3,3.8,-0.5,1%,2.1,0.75,i,O=C(Nc1nnc(-c2ccncc2)o1)c1cccc(N2C(=O)CCC2=O)c1
1.6,4.3,3.3,0%,0.9,0.76,i,Cc1ccc(S(=O)(=O)N2CCN(C(=O)c3ccccc3Cc3ccccc3)CC2)c(C)c1
9.0,1.3,1.4,-5%,2.3,0.64,i,Cc1ccc2sc(N(CCCN(C)C)C(=O)c3ccc(S(=O)(=O)N4CCc5ccccc5C4)cc3)nc2c1C
1.8,2.9,-2.7,6%,-2.9,0.71,i,CCN(CC(=O)Nc1c(F)cccc1F)C(=O)c1ccc(N2CCCC2)c([N+](=O)[O-])c1
2.8,2.8,4.1,-5%,0.3,0.7,i,Cc1ccc2c(c1)c1n[nH]c(=S)nc1n2CCc1ccccc1
13,x,-2.3,x,x,x,i,CC(O)(c1ccc(F)c(F)c1)c1nc(/C=C/c2ccccc2)cs1 (centres undefined)
-2.4,6.5,3.0,-1%,2.4,0.7,i,COc1ccccc1CNC(=O)C1CCCN(S(=O)(=O)c2cccc3cccnc23)C1 (centres undefined)
4.8,6.5,1.7,-1%,u,0.7,i,O=C1CCc2cc(S(=O)(=O)N3CCCCC3)cc3c2N1CC3
4.0,x,21,x,x,x,i,Cc1cccc(C)c1NC(=O)C(c1ccc(-c2ccccc2)cc1)n1c(=O)c(-c2ccco2)nc2ccccc21 (centres undefined)
x,x,26,-3%,0.5,x,x,C(=N\NC1=Nc2cccc3cccc1c23)/c1ccccc1
x,1.6,2.6,-1%,-3.7,0.66,x,CCn1c(CSc2nc(C)cc(C)n2)nnc1SCC(=O)Nc1nc(-c2ccccc2)cs1
17,4.9,3.0,8%,-0.1,0.66,x,O=[N+]([O-])C(=C1SCCS1)C(=C(Cl)Cl)N1CCCCC1
-0.7,1.2,-2.9,18%,3.4,x,i,C[C@@H](C(=O)NCCc1c[nH]c2ccccc12)[C@H]1C[C@]1(C)[C@H](NC(=O)OCc1ccccc1)c1ccccc1
11&13&13,x,7.7,x,x,x,i,C[C@@H]1CN([C@H](C)CO)C(=O)CCCn2nncc2CO[C@H]1CN(C)C(=O)Nc1ccc(N2CCCCC2)cc1
2.3,7.4,-0.5,x,-2.1,0.68,i,COc1cccc(CN2C(=NC(=O)CCC3CCCC3)SC3CS(=O)(=O)CC32)c1 (centres undefined)
1.5,1.5,1.6,x,x,0.69,i,Cc1ccc(NC(=O)COC(=O)[C@@H]2CC(O)CN2S(=O)(=O)c2ccc3c(c2)OCCO3)cc1 (some centres undefined)
-6.7,x,0.9,x,x,x,i,O=C1NC[C@@H](CCCCN2C[C@H](Cc3ccccc3)N(Cc3ccccc3)C(=O)C2=O)N(Cc2ccccc2)C1=O
7.0,1.0,1.2,2%,5.3,0.67,i,CC1(NC(=O)c2cccc(S(=O)(=O)N3CCN(c4ccc(F)cc4)CC3)c2)CCS(=O)(=O)C1 (centres undefined)

An excerpt; count on the stated rates, not on these rows.
